# ALR inh = inhibitors of human sulfhydryl oxidase ALR | inhibition, % (concentration not given with the values) | purified ALR, DTT oxidation, H2O2 HRP-luminol luminescence | 3.8% of 290,000 active;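 active = mean and each replicate at 75% or more; inconclusive = only one of the two met; inactive = neither met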;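 note: stock transfer was 7.5 nL into about 7.5 µL; 0% = neutral wells and 100% = wells with inactivated enzyme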
# Target sequence (P55789 whole entry, looked up): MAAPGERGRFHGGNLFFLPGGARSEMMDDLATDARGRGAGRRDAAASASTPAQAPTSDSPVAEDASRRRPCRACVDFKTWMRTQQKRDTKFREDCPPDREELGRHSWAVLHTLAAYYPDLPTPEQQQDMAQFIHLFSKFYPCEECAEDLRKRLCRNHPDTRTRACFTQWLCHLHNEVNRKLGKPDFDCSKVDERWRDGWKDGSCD
# T cruzi inh = T. cruzi replication inhibition | T. cruzi beta-gal in NIH3T3, luminescence, 90 h | inhibition, % (no concentration beside the values) | 1.4% of 300,000 active | AID 1885;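 active = mean inhibition across valid replicates above about 55%, limit read from the data; inconclusive = mean below that limit but half or more replicates reach it; inactive = mean below it, under half of replicates reach it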;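 note: signal also drops with host cell toxicity which is not excluded here; 0% = plate median of DMSO wells and 100% = zero luminescence signal; higher percent means less beta-gal luminescence so fewer parasites; stock transfer was 50 nL into about 50 µL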
# FGF22 binding = FGF22 (human) thermal shift binding. Q9HCT0. recombinant FGF22 thermal shift, SYPRO orange fluorescence; percent of sucrose octasulfate shift, DMSO zero. calls only at 9.99 µM. 1.5% of 340,000 active;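 active = melting point raised past a set limit in the mean and every replicate; inconclusive = no clear call; three in four hits are not shown here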
# Target sequence (Q9HCT0 whole entry, looked up): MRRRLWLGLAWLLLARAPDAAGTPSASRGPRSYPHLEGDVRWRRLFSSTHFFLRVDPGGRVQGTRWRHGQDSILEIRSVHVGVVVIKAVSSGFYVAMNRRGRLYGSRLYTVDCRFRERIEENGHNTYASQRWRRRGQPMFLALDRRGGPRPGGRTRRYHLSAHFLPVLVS
# Beta cell apopt = beta cell apoptosis inhibition; INS-1E cytokine-induced death, ATP luminescence, 48 h; percent of positive-control rescue, neutral wells zero; protection from apoptosis, % (test concentration not listed); 0.8% of 300,000 active;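 active = all replicates at 75% or more, or half of them and the mean; inconclusive = half reach 75% but not the mean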;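 note: 0% = cytokine-treated negative control wells and 100% = positive control rescue; higher means more ATP so stronger rescue from cytokine killing; wells of about 40 µL received 100 nL stock; the first replicate is given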
# RanGTP-Imp inh = inhibitors of RanGTP-importin-beta interaction, primary screen, biochemical, FRET, CFP-Ran, YFP-importin-beta, homogeneous; cell-free CFP-Ran/YFP-importin-beta FRET ratio; inhibition, % (concentration not given with the values); 1.1% of 300,000 active;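 active = most replicates above 15%; inconclusive = exactly half above 15%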;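 note: 0% = DMSO wells and 100% = Ran loaded with GDP instead of GTP; wells of about 40 µL received 100 nL stock; the first replicate is given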
# AF4-AF9 inh = inhibitors of human MLL-AF4/AF9 interaction. 0.47% of 350,000 active. P42568. AID 651704. inhibition, % at 10 µM. AlphaScreen, biotin-AF4 peptide binding to FLAG-AF9;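 active = every replicate reaching a set inhibition limit, whatever the replicate mean, cut at about 25% in these data; inconclusive = mean inhibition reaches that limit but some replicates miss it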;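 note: 0% = plate neutral control median and 100% = total signal loss; the record names both 10 and 1 µM as test concentration; the first replicate is given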
# Target sequence (P42568 whole entry, looked up): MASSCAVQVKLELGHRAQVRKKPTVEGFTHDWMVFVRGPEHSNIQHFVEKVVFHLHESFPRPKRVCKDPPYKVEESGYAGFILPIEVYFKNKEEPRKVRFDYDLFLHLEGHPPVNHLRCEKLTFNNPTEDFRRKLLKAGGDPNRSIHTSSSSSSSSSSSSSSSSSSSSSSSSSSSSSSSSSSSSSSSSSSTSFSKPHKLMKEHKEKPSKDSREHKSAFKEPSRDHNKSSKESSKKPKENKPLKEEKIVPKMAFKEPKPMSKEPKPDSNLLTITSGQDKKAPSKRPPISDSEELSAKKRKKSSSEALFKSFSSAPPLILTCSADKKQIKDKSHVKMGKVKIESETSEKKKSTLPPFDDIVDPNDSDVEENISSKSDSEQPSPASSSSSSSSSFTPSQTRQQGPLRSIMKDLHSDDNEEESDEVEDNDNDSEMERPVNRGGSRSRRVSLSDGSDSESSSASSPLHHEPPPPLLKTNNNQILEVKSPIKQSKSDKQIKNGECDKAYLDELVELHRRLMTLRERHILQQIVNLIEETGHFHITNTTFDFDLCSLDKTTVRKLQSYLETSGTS
# rRNA inh HTS = inhibits bacterial ribosomal RNA function over humanized ribosomes; E. coli WT GFP vs humanized-ribosome RFP mutants, fluorescence, 24 h; active compounds read low; DMSO median 0, no signal -100; GFP signal change (wild-type ribosome), % (no concentration beside the values); 1.6% of 350,000 active; AID 720706;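 active = significant combined selectivity score with lowered wild-type GFP, culture density cut under 30%, mutant RFP and density less affected; inactive = any of these conditions unmet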; note: one replicate is shown; some compounds called inactive have numbers as strong as hits
# Calb FLC = affects C. albicans growth with fluconazole. growth inhibition, % (no concentration beside the values). 0.57% of 300,000 active. C. albicans CaCi-2 (fluconazole-resistant clinical isolate) + fluconazole, Alamar Blue growth, 48 h;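 active = most replicates above 75%; inconclusive = exactly half above 75%; inactive = most below 75%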;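 note: all wells also contain fluconazole at 8 µg/ml as a sub-toxic cotreatment; 0% = median of DMSO wells and 100% = median of geldanamycin control wells; wells of about 8 µL received 7.5 nL stock; the first replicate is given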
# rRNA inh HTS OD600 = also measured in rRNA inh HTS; calls as there; OD600 change, %; measured here: OD600 growth;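 optical density of the mix in the first replicate; 0 = DMSO median and -100 = no signal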
# rRNA inh HTS RFP = further read-out of rRNA inh HTS, marked with its call; RFP signal change, %; measured here: RFP humanized mutant strains;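 first replicate; 0 = DMSO median and -100 = no signal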
# The depositor's hits bear a star; i = inactive; ? = inconclusive; nt = no result given. Only part of the results is shown; the hit share may differ from the screen's.
SMILES,ALR inh,T cruzi inh,FGF22 binding,Beta cell apopt,RanGTP-Imp inh,AF4-AF9 inh,rRNA inh HTS,rRNA inh HTS OD600,rRNA inh HTS RFP,Calb FLC
COc1cccc(NC(=O)CNC(=O)c2ccccc2)c1,-0.5,-7.5,nt,-7.6,-2.1,nt,nt,nt,nt,-5.5
CCOc1ccc(C(=O)O/N=C(\N)c2ccccn2)cc1,1.9,-18.1,i,-5.2,4.5,1.9,1.7,9.6,0.5,0.7
CCOc1ccc(-n2c(N)c(-c3nc4ccccc4[nH]3)sc2=S)cc1,36.2,-1.9,nt,-11.9,8.6,nt,nt,nt,nt,-14.3
CCCN(C(=O)C(=O)Nc1ccc2nc3n(c(=O)c2c1)CCCCC3)c1ccc(OCC)cc1,-4.1,-1.9,i,10.5,-2.6,-7.0,-4.6,-9.4,3.2,18.9
CC1CN/C(=C\C(=O)c2ccc(Br)cc2)C(=O)N1 (centres undefined),0.1,-14.3,i,0.7,0.5,1.2,2.1,11.8,6.5,-18.1
COc1ccc(C(=O)CC(=O)C(=O)Nc2cc(Cl)c(OC)cc2OC)cc1,nt,10.9,i,6.2,1.4,-1.6,7.5,7.6,-6.0,3.6
C=CCN(CC=C)CCOc1cc(C)ccc1[N+](=O)[O-],1.2,4.5,i,-0.3,nt,1.3,nt,nt,nt,-20.5
CCC(C)[C@H](NC(=O)N1CC(=O)Nc2ccccc21)C(=O)Nc1ccccc1C (some centres undefined),16.4,-12.3,i,nt,-0.6,1.0,1.6,-3.0,-1.4,-4.3
O=C1CCc2ccc(NC(=O)C3CC3)cc2N1,0.0,0.4,i,-6.6,0.2,-1.0,8.0,16.6,1.4,0.0
N#Cc1ccc2[nH]c(CO)c(-c3ccccc3)c2c1,70.3,-7.6,i,1.6,2.8,3.3,-29.9,-65.0,-13.4,-11.4
Cc1cccc(NS(=O)(=O)c2cnc(Cl)c(Br)c2)n1,-6.8,-2.8,nt,-1.6,-2.4,nt,nt,nt,nt,0.3
CCSC(=S)c1c(C)[nH]n(-c2ccccc2)c1=O,33.1,-50.6,i,1.3,-3.9,2.6,-43.2*,-24.2*,-12.4*,8.9
CCOC(=O)N1CCN(S(=O)(=O)c2c(C)nc3sccn3c2=O)CC1,nt,-10.3,i,1.3,-3.6,-1.1,4.1,-2.6,0.1,-11.3
CCN(CC)C(=O)C1CCCN(Cc2cccc(F)c2)C1 (centres undefined),-3.5,20.2,nt,0.3,-2.9,nt,nt,nt,nt,-9.2
COc1ccc(S(=O)(=O)CCc2nnc(NC(C)=O)s2)cc1,-2.7,-15.5,i,-1.9,-1.8,-0.1,13.6,1.4,-1.1,0.9
CC(=O)CSc1ccc(S(=O)(=O)N2CCN(C)CC2)cn1,nt,nt,i,0.5,nt,-22.3,11.0,16.3,-1.2,nt
CCSc1nnc(NC(=O)NC(CC)(C(F)(F)F)C(F)(F)F)s1,nt,13.4,nt,39.5,-4.7,nt,nt,nt,nt,-17.6
Cc1cc(=O)oc2c1c(C)nn2-c1ccc(Br)cc1,0.5,-11.4,nt,-1.6,?,-1.0,14.2,8.6,2.5,50.6
CCc1ccc(OCC(=O)OCC(=O)NC2CCCC(C)C2C)cc1 (centres undefined),3.0,nt,i,-8.1,nt,-1.8,1.9,0.6,-2.1,nt
Cc1cc(=O)oc2cc(OCC(=O)N3CCN(c4ccccc4)CC3)ccc12,34.2,nt,i,-3.3,nt,-1.0,-16.6,-15.6,-2.3,nt
COc1ccc(CN2CCN(c3cc(C)nc4c5c(C)cc(C)nc5nn34)CC2)cc1F,nt,14.4,nt,5.1,?,nt,nt,nt,nt,0.9
Cn1cc(CNC(=O)C2c3ccccc3Oc3ccccc32)cn1,1.4,-16.3,nt,-4.9,0.9,nt,nt,nt,nt,15.3
Cc1cc(N)n(-c2ccc(Cl)cc2)n1,-10.5,-16.5,i,-0.4,-1.0,-16.8,2.0,6.3,-1.8,-14.3
O=[N+]([O-])c1ccccc1O[C@@H]1O[C@H](CO)[C@H](O)[C@H](O)[C@H]1O,-10.6,-16.3,i,3.2,?,1.2,37.2,21.6,3.0,0.6
COC(=O)c1ccccc1S(=O)(=O)NNC(=O)c1nn(C)c(=O)c2ccccc12,3.2,nt,i,0.9,nt,0.0,2.1,13.6,-2.5,nt
# The list goes on:
SMILES,ALR inh,T cruzi inh,FGF22 binding,Beta cell apopt,RanGTP-Imp inh,AF4-AF9 inh,rRNA inh HTS,rRNA inh HTS OD600,rRNA inh HTS RFP,Calb FLC
CCOC(=O)c1c(CSc2ccccc2)n(C)c2ccc(O)c(CN3CCOCC3)c12,25.2,14.6,i,-0.7,4.4,-4.4,-4.8,-13.4,4.9,1.7
COc1ccccc1NC(=O)COC(=O)CCC1CCCC1,-4.9,nt,i,-2.6,nt,-1.7,-1.2,-3.5,0.0,nt
Cc1ccc(N(CC(=O)N/N=C/c2cccs2)S(C)(=O)=O)cc1Cl,-13.3,2.6,nt,-5.1,1.6,nt,nt,nt,nt,-8.1
COc1ccc(-c2cc(-c3c(O)c(OC)c4occc4c3OC)[nH]n2)cc1OC,25.4,19.8,i,7.9,2.0,-13.0,-33.0,-28.0,-6.2,71.2
COc1ccc(S(=O)(=O)N2CCCCCC2)cc1N,20.4,-3.4,nt,0.3,-1.1,0.2,8.1,6.2,0.9,7.9
COc1ccc(CN2CCNC(=O)C2CC(=O)NCCSc2nccn2C)cc1OC (centres undefined),5.0,-21.4,i,2.0,2.9,-3.0,12.5,13.2,-1.5,-6.2
Cc1ccc(C)c(C(=O)CSc2nc3ccccc3c(=O)[nH]2)c1,-6.5,-14.3,i,4.5,1.3,-1.5,7.4,7.6,0.0,14.0
O=C(N/N=C/C=C/c1ccco1)c1ccncc1,-6.1,-20.6,i,-13.1,-2.6,nt,19.9,1.3,6.4,-15.2
C/C(Cn1nnc2ccccc21)=N\NC(=O)c1cccc(Br)c1,-1.7,6.0,nt,-2.2,-0.9,nt,nt,nt,nt,-1.6
CCCOc1ccc(/C=N/Nc2ccc(C(=O)O)cc2)c(OCCC)c1,nt,2.2,i,nt,5.2,4.1,4.7,0.9,-1.4,4.2
CCN(CC(=O)N1CCOCC1)S(=O)(=O)c1ccc(C)cc1,0.7,-1.9,nt,-6.4,-3.5,nt,nt,nt,nt,7.0
COc1cccc(N2CCN(CC(=O)Nc3ccc(S(=O)(=O)N4CCCCCC4)cc3)CC2)c1,nt,nt,i,8.2,nt,3.3,-15.7,-7.2,1.2,nt
Cc1c(Cl)cccc1NC(=O)CNC(=O)Cc1n[nH]c(=O)c2ccccc12,nt,nt,i,-4.4,nt,2.1,5.5,13.1,1.6,nt
Cc1ccc(C)c(OCCn2cc(/C=C(\C#N)C(=O)NCc3ccco3)c3ccccc32)c1,-1.1,-21.4,i,nt,4.4,-0.4,nt,nt,nt,-3.7
Cc1ccc(SCC(=O)N2CC(C)OC(C)C2)cc1 (centres undefined),-4.5,-8.9,nt,-15.2,-2.3,nt,nt,nt,nt,-2.0
CCC(C)c1c(O)nc(SCC(=O)c2ccccc2)[nH]c1=O (centres undefined),99.2*,-2.1,nt,-3.7,-0.1,nt,nt,nt,nt,-0.6
CCOC(=O)CSc1nc2c(sc(=S)n2-c2ccccc2)c(=O)n1-c1ccc(OC)cc1OC,nt,6.0,i,nt,-1.2,7.4,7.6,12.2,-0.1,21.8
CSc1ccc(Cn2nnc(C(=O)NCc3ccccc3)c2N)cc1,-4.1,9.2,i,6.7,2.1,-3.1,1.6,11.3,-1.8,8.0
Cc1ccc(C)c(N2CC(C(=O)O)CC2=O)c1 (centres undefined),9.8,-12.6,nt,-0.1,-1.2,-0.8,11.1,3.3,0.5,-3.0
Cc1ccc(NC(=O)CCNC(=O)c2ccccc2Cl)nc1,-6.2,-8.2,i,-1.1,0.9,1.2,2.5,3.7,2.3,-1.4
COc1ccc(CCNCC(=O)Nc2ccc(OC(F)F)cc2)cc1,-0.5,6.3,i,-6.0,-1.2,-10.6,-5.6,-5.8,1.1,-5.6
C/C(=N\NC(=O)c1ccc(C)cc1C)c1ccc(-n2ccnc2)cc1,-0.3,-8.0,nt,-2.9,1.6,nt,nt,nt,nt,22.1
CN1CCN(Cc2nc(-c3cccs3)no2)CC1c1ccccc1 (centres undefined),0.0,2.6,i,-2.1,2.9,0.1,2.5,3.4,0.5,-6.5
N/C(=N\OC(=O)CCc1ccccc1)c1ccc(Br)cc1,1.0,-3.8,i,2.1,-4.3,1.5,-9.0,-5.0,-1.6,0.3
CCC(=O)c1ccc(O)cc1,-38.5,-19.5,i,-4.8,?,0.7,nt,nt,nt,nt

# For convenience, some entries already given.
SMILES,ALR inh,T cruzi inh,FGF22 binding,Beta cell apopt,RanGTP-Imp inh,AF4-AF9 inh,rRNA inh HTS,rRNA inh HTS OD600,rRNA inh HTS RFP,Calb FLC
Cc1c(Cl)cccc1NC(=O)CNC(=O)Cc1n[nH]c(=O)c2ccccc12,nt,nt,i,-4.4,nt,2.1,5.5,13.1,1.6,nt
Cc1ccc(C)c(OCCn2cc(/C=C(\C#N)C(=O)NCc3ccco3)c3ccccc32)c1,-1.1,-21.4,i,nt,4.4,-0.4,nt,nt,nt,-3.7
Cc1ccc(SCC(=O)N2CC(C)OC(C)C2)cc1 (centres undefined),-4.5,-8.9,nt,-15.2,-2.3,nt,nt,nt,nt,-2.0
CCC(C)c1c(O)nc(SCC(=O)c2ccccc2)[nH]c1=O (centres undefined),99.2*,-2.1,nt,-3.7,-0.1,nt,nt,nt,nt,-0.6
CCOC(=O)CSc1nc2c(sc(=S)n2-c2ccccc2)c(=O)n1-c1ccc(OC)cc1OC,nt,6.0,i,nt,-1.2,7.4,7.6,12.2,-0.1,21.8

# Remaining list, next part
SMILES,ALR inh,T cruzi inh,FGF22 binding,Beta cell apopt,RanGTP-Imp inh,AF4-AF9 inh,rRNA inh HTS,rRNA inh HTS OD600,rRNA inh HTS RFP,Calb FLC
Cc1[nH]n(-c2ccc([N+](=O)[O-])cc2)c(=O)c1C=NCCc1c(C)[nH]c2ccccc12,-57.7,15.4,nt,17.2,-2.5,nt,nt,nt,nt,?
COC(=O)c1ccc(/C=C(\C#N)c2nc3ccccc3s2)cc1,2.9,-6.6,nt,0.1,0.4,nt,nt,nt,nt,5.6
Cn1nc(C(F)(F)F)c(-c2ccc(F)cc2)c1NC(=O)c1cccnc1,nt,-1.2,i,-3.3,3.8,-1.5,-24.4,-22.7,-2.1,0.4
COc1cccc(-c2ccc(=O)n(CC(=O)Nc3ccc(C(=O)N4CCCC4)cc3)n2)c1,-0.4,13.1,nt,-6.3,-3.8,nt,nt,nt,nt,-26.6
Cc1ccccc1-n1c(SCc2cc(=O)n3ccccc3n2)nc2[nH]ncc2c1=O,-7.2,-0.7,nt,-2.8,1.4,nt,nt,nt,nt,33.2
COC(=O)CN1C(=O)CC(C)(C)S(=O)c2ccccc21 (centres undefined),-5.7,0.5,i,0.5,0.3,-1.7,5.9,6.8,-1.4,-6.6
CCOc1ccccc1NC(=O)CN1C(=O)COc2ccccc21,13.5,-0.6,i,-8.3,-4.3,-5.9,6.9,6.1,-2.4,-4.5
Cc1nnc2ccc(-c3cccc(NC(=O)Cc4cccs4)c3)nn12,-12.1,-5.6,i,2.1,1.3,nt,-9.0,-6.1,0.7,2.4

# Assay outcomes as filed in PubChem.
